Screening data deposited in PubChem BioAssay by ICCB-Longwood Screening Facility, Harvard Medical School.
MgrA DNA FP: S. aureus MgrA activity modulators, primary screen, biochemical, S. aureus Newman, fluorescence polarization; AID 602314, 2012; 84,000 tested, 0.13% active; MgrA-DNA binding; inhibition, %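 (about 10 µg/mL by stock and volumes)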;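 active = above 50% in either of two replicates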;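 also: 0% = protein plus DNA without compound and 100% = DNA alone without protein; higher means less MgrA bound to DNA so lower polarization; one replicate is shown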
Sa helicase inh: inhibitors of S. aureus replicative helicase, primary screen, biochemical, fluorescence unwinding readout | purified S. aureus helicase, fluorescence unwinding assay; about half of the hits fall short of the stated cut | inhibition, %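 (tested at about 80 µM)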 | 120,000 tested, 0.05% active | AID 485395, 2010;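 active = both duplicates at 50% or more, or one of them with a favoured structure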;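 also: 0% = mean of negative control wells and 100% = mean of positive control wells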
* marks the source's active call; other numbers are inactive results; . = no result given.

Molecule,Sa helicase inh,MgrA DNA FP
CC(=O)Nc1ccc(S(=O)(=O)N[C@@H](C)C(=O)N(C)Cc2cccs2)cc1,-10.0,.
Cc1cn(CCC(=O)NC2Cc3ccccc3C2)c2ccccc12,.,-4.0
Cc1ccc(Nc2nnns2)cc1,.,1.2
Cc1cc(NC(=O)CC#N)no1,.,-1.2
C/C(=N\NC(=O)C(C)C)c1cc(C)c(C)cc1C,0.0,.
CN(C)C(=O)N1CCNCC1,17.0,0.4
O=C(COc1ccccc1C(=O)N1CCN(c2ccccc2O)CC1)Nc1ccc(Br)cc1,-8.0,.
CC1CCC(C(C)C)C(OC(=O)COC(=O)c2ccc(Br)o2)C1 (stereo not drawn),17.0,.
O=C(NCCc1cccs1)c1ccc(OC(F)(F)F)cc1,.,-2.6
CCOc1ccccc1N1C(=O)CC(N(O)c2ccccc2)C1=O (stereo not drawn),8.0,1.5
Cc1cc(C)cc(NS(=O)(=O)N(C)C)c1,5.0,-1.9
NC(=O)c1ccc2nc3ccsc3c(=O)n2c1,.,-1.8
COc1ccc(C2=NN(CCC(=O)NCCN3CCN(c4cccc(Cl)c4)CC3)C(=O)CC2)cc1,1.0,-0.3
NC(=S)NN1C(=O)C2CC=CCC2C1=O (stereo not drawn),-3.0,.
CN(C)S(=O)(=O)c1ccc(C(=O)OCC(=O)c2cn(CCC#N)c3ccccc23)cc1,-6.0,.
O=c1ccc(-c2nc3cc(Cl)c(Cl)cc3[nH]2)c[nH]1,.,0.8
CC12CC3(C)CC(C)(C1)CC(C(=O)NC(=S)N1CCCC1)(C2)C3,-16.0,0.9
C=C(C)CNC(=S)N=Nc1c(O)n(C)c2ccccc12,-3.0,.
Clc1ccc(-c2cn3cccnc3n2)cc1,-10.0,.
Nc1nncn1C(=O)c1ccc(Br)cc1,6.0,2.0
NS(=O)(=O)c1ccc(N2C(=O)Nc3ccccc3N2O)cc1,18.0,.
CC1(C)CC(=O)c2cc3c(N)c(C(=O)c4ccccc4)sc3nc2C1,-20.0,.
COC(=O)c1cn(C)c2ccc(S(=O)(=O)N3CCCCC3)cc2c1=O,-1.0,-0.6
O=C(CSc1nnc(-c2ccc(NS(=O)(=O)c3ccccc3)cc2)o1)NCC1CCCO1 (stereo not drawn),-1.0,0.8
O=C(Cc1ccc(-n2c(=S)[nH]c3ccccc3c2=O)cc1)N1CCCC1,12.0,0.6
CCOC(=O)C1=C(C)N=c2s/c(=C\c3ccc(O)c(OC)c3)c(=O)n2C1c1cc(OC)ccc1OC (stereo not drawn),.,0.6
CC(C)N1C2OC(C3OC4C(O3)N(C(C)C)S(=O)(=O)N4C(C)C)OC2N(C(C)C)S1(=O)=O (stereo not drawn),-3.0,-3.2
CCc1nc(SCC#N)c(C#N)cc1C,-6.0,2.1
Cc1ccc(CN2C(=O)CCC2C(=O)O)cc1 (stereo not drawn),18.0,.
CCN(CC)c1ccc(/C=N/c2nc3c(s2)CCCC3)c(O)c1,-46.0,.
O=S(=O)(NCC(c1cccnc1)N1CCN(c2ccccc2F)CC1)c1cccs1 (stereo not drawn),-13.0,.
NC(=O)C1CCN(c2ncnc3c2cnn3-c2ccccc2)CC1,0.0,.
CCCNC(=O)c1ccc(Cl)c(S(=O)(=O)Nc2ccccc2)c1,8.0,1.5
CC1=C(C(=O)Nc2ccc(Cl)cn2)C2(CCCCCC2)OC1=O,-25.0,.
Cn1c(Sc2ncc(C#N)c(N)n2)nnc1-c1ccncc1,6.0,.
O=C(Oc1ccccc1Cl)C1=CC=CN2CCS(=O)(=O)N=C12,-10.0,.
CC(NS(=O)(=O)c1cccc2nsnc12)C(=O)OCc1cccc(C(F)(F)F)c1 (stereo not drawn),-15.0,.
O=C(Nc1ccc2ccccc2c1)c1ccc(Br)o1,22.0,.
CC/C(=C/c1ccccc1)CN1CCCCC1,-27.0,-0.8
CN(C)S(=O)(=O)c1ccc(C(=O)Nc2ccccc2C(=O)NCc2ccc3c(c2)OCO3)cc1,1.0,.

Single values from the list:
In Sa helicase inh, Cn1c(Sc2ncc(C#N)c(N)n2)nnc1-c1ccncc1 reads 6.0
In MgrA DNA FP, Cc1ccc(Nc2nnns2)cc1 reads 1.2

New compounds follow.
Molecule,Sa helicase inh,MgrA DNA FP
Cc1noc(C)c1CSc1ncccc1C(=O)N(C)c1ccc2ccccc2c1,10.0,.
CCC1(C)NC(=O)N(Nc2ncnc3sc4c(c23)CCC4)C1=O (stereo not drawn),4.0,.
COC(=O)c1csc2c(C(F)(F)F)cc(N3CCN(C(=O)Nc4cc(Cl)cc(Cl)c4)CC3)nc12,.,1.6
Cc1ccc(C)c(SCC(=O)C(C#N)c2nc(C)cs2)c1 (stereo not drawn),16.0,.
FC(F)(F)c1cc(C(F)(F)F)c2ccc3nnnn3c2n1,.,-0.6
O=C(NCCc1ccccc1)C(C(=O)c1ccccc1)n1ccccc1=O (stereo not drawn),-1.0,-4.2
O=C(O)c1cc(N2C(=O)C3C4c5ccccc5C(c5ccccc54)C3C2=O)ccc1N1CCOCC1 (stereo not drawn),16.0,-0.4
Cc1ccc(N(Cc2ccco2)C(=O)COc2ccc3oc(=O)cc(C)c3c2)cc1,1.0,3.1
CC(OC(=O)/C=C/c1cccs1)C(=O)Nc1ccc(S(N)(=O)=O)cc1 (stereo not drawn),-1.0,.
O=c1[nH]c(=S)[nH]c(O)c1N=Nc1ccc(F)cc1,-16.0,.
CCOC(=O)C1=C(C)C(c2ccc(OC)cc2)NC(=O)N1 (stereo not drawn),11.0,0.3
C=CCn1cnc2c(nnn2-c2ccc(OC)c(OC)c2)c1=O,2.0,.
COC(=O)c1cn(CC(=O)OCc2ccc(-n3nc(C)cc3C)cc2)c2ccccc12,-11.0,.
COc1ccccc1/C=C/C(=O)OCCN1CCCC1=O,14.0,1.6
O=C(CC1Nc2c3ccccc3nc(=S)n2C1=O)NCc1cccc(Cl)c1 (stereo not drawn),7.0,.
COC(=O)N/N=C(\C)c1ccccc1OC,-5.0,.
COc1ccc2cc(CCNC(=O)C(C)Oc3ccccc3)c(=O)[nH]c2c1 (stereo not drawn),-17.0,.
Cc1nn(Cc2ccccc2Cl)c2sc(C(=O)Nc3sccc3C(N)=O)cc12,-39.0,.
C(=N\n1cnnc1)/c1ccco1,3.0,-1.5
C(=C\c1ccccc1)/CSc1nnc(-c2cccnc2)o1,3.0,-1.6
Cc1cc(SCC(=O)Nc2ncc(Cl)cc2Cl)nc2ccccc12,5.0,-0.3
CCC(C)N(C(=O)CSc1ccc2c(c1)OCCO2)C1CCS(=O)(=O)C1 (stereo not drawn),-3.0,.
CCCN1C(=O)C2C(c3ccc(O)cc3)NN(Cc3ccccc3)C2C1=O (stereo not drawn),5.0,.
O=S(=O)(c1ccc(O)cc1)c1ccc(Cl)cc1,-2.0,.
COc1ccc2nc(C)c3c(c2c1)OC(C)C3 (stereo not drawn),8.0,3.0
CCc1ccc(NC(=O)N2CC(C)CC(C)C2)cc1 (stereo not drawn),7.0,-0.9
CCCn1ccc2c(OCC(=O)c3ccccc3)cccc2c1=O,11.0,.
COc1ccc(-c2csc(-c3ccc(O)cc3)n2)cc1,-11.0,1.8
O=C(Cc1cn2ccsc2n1)NC12CC3CC(CC(C3)C1)C2,-15.0,.
COc1ccc(-c2c(C)nn3c(NCCN4CCCC4)cc(C)nc23)cc1OC,6.0,.
COc1cc(C)c2c(=O)c(-c3nc(C)cs3)coc2c1,15.0,-1.1
Cc1ccc2c(c1)N(CC(N)=O)C(=O)CO2,3.0,-0.1
COC(=O)Cn1c(C)nc(=O)c(-c2ccccc2)c1C,7.0,.
O=C(Cc1ccccc1)NCCSc1c[nH]c2ccccc12,-15.0,.
CNC(=O)CCCN1C(=O)c2ccccc2C1=O,10.0,0.6
CCOC(=O)c1sc(N)c(C#N)c1CSc1nnc2ccccn12,-15.0,.
Cc1ccc2c(c1)sc(=NC(=O)CN1C(=O)CCC1=O)n2C,-12.0,.
Nc1[nH]nc(Nc2cccc(Cl)c2Cl)c1C(=O)c1cccs1,.,2.5
O=C(O)/C=C/c1cn(-c2ccccc2)nc1-c1ccccc1,-21.0,0.6
O=C(C1CCN(S(=O)(=O)c2cccs2)CC1)N1CCCC1c1nc2ccccc2s1 (stereo not drawn),-5.0,.

The list goes on, overlapping the part above by 5 compounds.
Molecule,Sa helicase inh,MgrA DNA FP
CCOC(=O)c1sc(N)c(C#N)c1CSc1nnc2ccccn12,-15.0,.
Cc1ccc2c(c1)sc(=NC(=O)CN1C(=O)CCC1=O)n2C,-12.0,.
Nc1[nH]nc(Nc2cccc(Cl)c2Cl)c1C(=O)c1cccs1,.,2.5
O=C(O)/C=C/c1cn(-c2ccccc2)nc1-c1ccccc1,-21.0,0.6
O=C(C1CCN(S(=O)(=O)c2cccs2)CC1)N1CCCC1c1nc2ccccc2s1 (stereo not drawn),-5.0,.
CCc1ccc(N2C(N)=C(C#N)C(c3cccc(Cl)c3)c3c(C)noc32)cc1 (stereo not drawn),11.0,-0.3
Cc1ccc(-n2cccc2)c(O)c1,1.0,.
O=CN(c1ccccc1)c1ccccc1,8.0,-3.3
O=S(=O)(c1ccc(Cl)cc1)N1CCNCC1,10.0,.
CCC(=O)NCC[C@@H]1CCc2ccc3c(c21)CCO3,.,0.2
CC(C)CN(CC(C)C)C(=O)CSc1nc2ccccc2[nH]1,0.0,.
CC(=O)N1C(=O)/C(=C(\C#N)C(=O)NCCc2ccccc2)c2ccccc21,4.0,2.5
O=C1c2ccccc2S(=O)(=O)N1CC1CC(c2ccccc2)=NO1 (stereo not drawn),3.0,0.1
Cc1nnc2sc(-c3cccc(NC(=O)c4cccc(F)c4)c3)nn12,7.0,-8.4
CCCn1c(=O)n(CCC)c2c(C)cc(C)cc21,3.0,5.9
CCCCCCCCCCCC1SC[C@@H](C(=O)O)N1C(C)=O (stereo partly drawn),.,3.4
Cc1cccc(NC(=O)c2ccco2)c1C(=O)O,.,-4.0
O=C1CC(c2ccc(F)cc2)CC(O)=C1C=NCCN1CCN(C(=S)Nc2ccccc2)CC1 (stereo not drawn),5.0,2.5
COCCN1C(=O)c2ccccc2N2C(=O)CCC12C(=O)Nc1ccc(C)cc1 (stereo not drawn),-8.0,.
Cc1ccc(N)c(C(NCC(=O)NN)c2ccccc2)c1 (stereo not drawn),-8.0,.
Cc1cc2ccccc2n1CCNC(=O)Cc1cccc2ccccc12,13.0,0.5
O=C(CC1N=C2c3ccccc3N=C(SCC(=O)c3ccccc3)N2C1=O)NCCc1ccccc1 (stereo not drawn),1.0,-1.1
C=CCn1cnnc1SCC(=O)c1cc(C)n(CC(F)(F)F)c1C,-3.0,.
CCOc1ccc(S(=O)(=O)Nc2cc(C(C)(C)C)nn2-c2ccccc2)cc1,6.0,.
COc1ccc(NC(=O)CSc2nc(C)cc(C(F)(F)F)c2C#N)cc1,.,3.9
Cc1ccc(CN2CCC(C(=O)NC(C)C)CC2)cc1,5.0,-6.1
COC(=O)C1=CO[C@@H](C)[C@H]2CN3CCc4c([nH]c5ccccc45)[C@@H]3C[C@H]12,.,-1.9
Nc1nc(-c2ccc3c(c2)NC(=O)CO3)cs1,-10.0,.
C=CC(C)(O)CC1C(C)(O)CCC2C(C)(C)CCCC21C (stereo not drawn),15.0,.
CCCSc1nc2c(c(=O)[nH]c(=O)n2C)n1C(C)C,-14.0,.
CC(C(=O)Nc1ccccc1C(=O)NC1CC1)N1C(=O)C2CC=CCC2C1=O (stereo not drawn),-2.0,.
COCCNC(=O)c1cc(-c2ccccc2)on1,7.0,2.6
Nc1nc(N)n(-c2ccccc2)c(=Nc2ccccc2)n1,.,0.2
O=C(Nc1ccc(F)cc1)C(F)(F)Sc1ccccc1,.,2.6
C=C(C)CSc1n[nH]c2nc3c(c(=O)n12)C(C)(CC)Cc1ccccc1-3 (stereo not drawn),22.0,-0.6
CC1CCCC(C)N1C(=O)C1CC(c2ccccc2F)=NO1 (stereo not drawn),-20.0,.
COC(=O)C(CC(C)C)NC(=O)C1c2ccccc2Oc2ccccc21 (stereo not drawn),-4.0,.
N#CCn1c(CSc2ncnc3sccc23)nc2ccccc2c1=O,-46.0,.
O=C(NCc1ccncc1)c1cc(-c2ccc(F)cc2)nc2ccccc12,-12.0,-2.5
O=C(NCCCc1ccccc1)c1cnc2ccccn2c1=O,12.0,-1.1
Cc1noc(/C=C/c2ccccc2F)c1S(=O)(=O)N1CCC(C(=O)NC2CCCCCC2)CC1,7.0,.
CCOc1ccc2nc(SCC(=O)c3cccs3)sc2c1,11.0,-2.1
CC(C)=NNc1nc(-c2ccccc2)cs1,25.0,.
Nc1cc(=O)[nH]c2ncnn12,-10.0,.
Cc1ccc(-n2c(=O)[nH]cc(C(=O)Nc3ccc(S(N)(=O)=O)cc3)c2=O)cc1C,-12.0,.
Cc1ccc(C)c(SCC(=O)OCC(=O)N2CC(C)OC(C)C2)c1 (stereo not drawn),-3.0,.
O=[N+]([O-])c1ccc2c(c1)NC(c1ccc([N+](=O)[O-])s1)O2 (stereo not drawn),.,5.4

Not all compounds are listed; the hit share may differ from the screen's.
